Screens: PubChem, several laboratories
GALR2 ag = GALR2 receptor agonists, primary screen, cell-based; Galanin receptor type 2 (Homo sapiens), O43603; GALR2-expressing cells, agonist activation read-out; activation, %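 (tested at 5 µM)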; 0.48% of 140,000 active;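 active means above mean plus 3 SD of all compounds, about 5% in these data, not always enough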;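 further: 0% = vehicle buffer wells and 100% = reference agonist at full effect; tested in CHO reporter cells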
Target sequence (O43603 whole entry, looked up): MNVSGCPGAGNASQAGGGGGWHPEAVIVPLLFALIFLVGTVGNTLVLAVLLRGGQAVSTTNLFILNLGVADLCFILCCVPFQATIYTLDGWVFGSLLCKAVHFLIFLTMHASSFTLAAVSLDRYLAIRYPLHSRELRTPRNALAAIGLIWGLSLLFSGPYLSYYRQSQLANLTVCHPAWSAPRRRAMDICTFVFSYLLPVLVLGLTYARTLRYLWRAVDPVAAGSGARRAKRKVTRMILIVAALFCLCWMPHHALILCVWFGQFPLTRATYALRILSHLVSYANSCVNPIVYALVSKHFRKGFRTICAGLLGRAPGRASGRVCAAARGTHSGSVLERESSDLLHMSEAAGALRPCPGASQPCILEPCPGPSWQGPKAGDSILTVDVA
RGS16-Gao = modulators of RGS16 binding to Galphao, primary screen, biochemical, human proteins, multiplexed bead flow cytometry. Regulator of G-protein signaling 16 (Homo sapiens) + Guanine nucleotide-binding protein …. binding response (% of control), % at 10 µM. bead-based flow cytometry RGS16-Galphao binding, fluorescence; actives lie on both sides. AID 1441, 2008. 0.38% of 220,000 active;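 active means below 25% or above 175%, edge rows of some plates excepted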;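 further: Galphao activated by GDP with aluminum fluoride before binding; 100% = wells without compound and 0% = beads without RGS; some results beyond the cut were filed as inactive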
Target sequence (O15492 whole entry, looked up): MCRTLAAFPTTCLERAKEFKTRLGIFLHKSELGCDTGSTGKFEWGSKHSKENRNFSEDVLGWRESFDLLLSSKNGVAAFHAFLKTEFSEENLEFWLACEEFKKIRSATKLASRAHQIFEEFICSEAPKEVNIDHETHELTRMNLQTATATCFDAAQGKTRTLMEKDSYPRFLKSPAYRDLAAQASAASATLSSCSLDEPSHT
Target sequence (P09471 whole entry, looked up): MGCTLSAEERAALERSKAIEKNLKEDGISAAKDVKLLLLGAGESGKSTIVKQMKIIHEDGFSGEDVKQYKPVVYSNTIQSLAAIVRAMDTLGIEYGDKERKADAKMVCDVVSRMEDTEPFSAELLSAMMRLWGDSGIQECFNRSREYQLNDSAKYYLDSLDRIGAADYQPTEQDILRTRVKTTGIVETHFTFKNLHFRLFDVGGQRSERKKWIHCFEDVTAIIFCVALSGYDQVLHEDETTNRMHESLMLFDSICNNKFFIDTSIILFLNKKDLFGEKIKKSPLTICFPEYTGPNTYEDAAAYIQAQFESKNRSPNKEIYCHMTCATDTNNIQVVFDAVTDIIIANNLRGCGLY
HSV augment = enhancers of HSV replication in host cells, fold increase, host cell viability. HSV replication augmentation in cells. maximum fold increase. 0.005% of 220,000 active;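 active means peak rise of 1.5-fold or more in the series; tested in PC3 cells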;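 further: first round at 10 µM; read as green reporter fluorescence; hits show the peak of a series up to 25 µM; 1 = signal of infected wells without compound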
INS promoter inh = inhibitors of insulin promoter-driven GFP, primary screen, imaging, TRM-6 cells (human fetal islet line), eGFP reporter, cell count | reporter expression induced with tamoxifen | inhibition, % at 2 µM | 0.9% of 130,000 active;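 active means inhibition above the mean plus 3 SD, with well images judged a real hit on visual review, cut at about 60% in these data, passing the limit was not always enough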
PKD1 kinase inh = inhibitors of human PKD1 kinase, biochemical, fluorescence polarization; Serine/threonine-protein kinase D1 (Homo sapiens), Q15139; PKD1 kinase fluorescence polarization assay; inhibition, %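 (about 10 µM by stock and volumes)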; 0.056% of 200,000 active; AID 797, 2007;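 active means inhibition of 50% or more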;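 further: controls were vehicle for no effect and a reference inhibitor for full effect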
INS promoter inh cell count = further read-out of INS promoter inh, marked with its call; normalized cell count, %; measured here: cell count, toxicity; reference of the scale not given here;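 cells exposed to compound for 48 h; stained nuclei by imaging scaled within each plate; lower means fewer cells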
HSV augment primary fold = also measured in HSV augment; calls as there; fold increase; compound at 10 µM; measured here: primary screen fold increase 10 uM; tested in PC3 cells;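 GFP signal in the first replicate; 1 = infected wells without compound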
* hit, by the source's call; i = inactive; / = no result given. Compounds were not picked by outcome (roughly 1.3% active in at least one column).

Molecule	PKD1 kinase inh	GALR2 ag	INS promoter inh	RGS16-Gao	INS promoter inh cell count	HSV augment	HSV augment primary fold
CCn1cc(C(=O)OC(C)C(=O)Nc2c(C)n(C)n(-c3ccccc3)c2=O)c(=O)c2ccc(C)nc21 (configuration not stated)	-12	-0.9	-30	96	93	i	0.88
N#CC1=C(N)Oc2cc(N)ccc2C1c1ccc(F)cc1 (configuration not stated)	-5	0.7	4	97	155	i	0.95
O=[N+]([O-])c1ccc(/C=N/Nc2nc(N3CCCCC3)nc(N3CCCCC3)n2)cc1	-6	/	/	113	/	i	0.87
CCOc1ccc(N2C(=O)/C(=C/c3ccccn3)SC2=S)cc1	/	/	/	107	/	i	0.94
CCOc1cccc(/C=N/NC(=S)NCCN2CCOCC2)c1O	2	/	0	100	50	i	0.97
CC(=O)c1ccc2c(c1)C1C=CCC1C(C(=O)O)N2 (configuration not stated)	-1	/	19	92	101	i	1
O=C(Nc1ccccc1)NC1CCN(CCCN2C(=O)c3ccccc3C2=O)CC1	23	-1.6	7	102	115	i	1
CC(C)C(NC(=O)c1ccc(S(=O)(=O)N2CCOCC2)cc1)c1nc2ccccc2[nH]1 (configuration not stated)	-8	-0.6	21	95	67	i	0.93
CCCCN(CCCC)CCCNC(=O)C1CC(c2ccc(C(F)(F)F)cc2)=NO1 (configuration not stated)	/	/	/	98	/	i	0.88
O=P(Cc1ccccc1)(c1ccccc1)c1ccccc1	-1	-0.3	/	111	/	i	1.1
CC1(C)CC(=O)c2cc(N=C/C(C(=O)c3ccccc3)=C(\O)c3ccccc3)c(=O)oc2C1	-3	/	/	100	/	i	0.72
CCSc1ccccc1C(=O)Nc1nc2ccccc2c(=O)[nH]1	-3	/	/	103	/	i	0.92
CCCNC(=S)N1CCC(c2nc3cc(C)c(C)cc3[nH]2)CC1	5	32*	-32	99	40	i	0.99
COc1ccc(/C=C(\NC(=O)c2cccs2)C(=O)N2CCOCC2)cc1OC	-2	-1.7	-2	107	41	i	1
O=S(=O)(c1ccc2ccccc2c1)N1CCN(Cc2ccccn2)CC1	-2	/	-17	163	59	i	1
Cc1nn2c3c(cnc2c1-c1ccccc1)C(=O)CCC3	-5	-2.2	/	100	/	i	0.96
Cc1cc(-c2ccccc2)n[nH]1	-3	/	/	95	/	i	1
N=C(N)c1ccc(Cl)cc1	-3	/	/	88	/	i	0.91
CC(=O)c1ccc(NC(=O)C2CCN(S(=O)(=O)c3cccs3)CC2)cc1	/	/	/	96	/	i	1
O=C(Cn1nnc(-c2ccccc2)n1)OCc1csc(-c2ccccc2)n1	-5	-0.5	19	33	100	i	1
CCOC(=O)c1c(C)nc2c(c1C)c(=O)oc1ccccc12	-1	-2.0	-14	105	82	i	0.94
CN(CC1COc2ccccc2O1)C(=S)Nc1ccccc1 (configuration not stated)	8	-1.7	-9	/	76	i	0.86
Cc1ccc(NC(=O)COn2nnc3ccc(S(=O)(=O)N(C)C)cc32)cc1F	-4	-0.8	32	102	99	i	0.94
CCOc1ccc2c(c1)C(N(CCN1CCOCC1)C(=O)Nc1ccc(OC)cc1OC)CC(C)(C)O2 (configuration not stated)	-1	/	-21	101	102	i	0.92

Printed as active in GALR2 ag (from the list above):
Structure,PKD1 kinase inh,GALR2 ag,RGS16-Gao,HSV augment primary fold
CCCNC(=S)N1CCC(c2nc3cc(C)c(C)cc3[nH]2)CC1,5,32*,99,0.99

New compounds follow:
Molecule	PKD1 kinase inh	GALR2 ag	INS promoter inh	RGS16-Gao	INS promoter inh cell count	HSV augment	HSV augment primary fold
Cn1c(CBr)c(C(=O)c2ccc([N+](=O)[O-])cc2)c(=O)n(C)c1=O	/	/	/	102	/	i	1.1
COC(=O)c1ccc(/C=C/c2ccc3cccc(OC(C)=O)c3n2)cc1	2	-1.1	/	72	/	i	1.1
CCOC(=O)Cc1c(Sc2ccccc2)c2ccccc2n1C	-3	-0.6	/	96	/	i	1
CC(CCc1ccccc1)NC(=O)COC(=O)C1=COCCO1 (configuration not stated)	-2	-3.5	-40	100	108	i	0.95
COCCNC(=O)/C(C#N)=C/c1ccc(C)o1	-1	/	/	97	/	i	1
CC(C)(C)NC(=O)NC(=O)CSc1ncccn1	-3	/	17	99	109	i	0.95
O=C(NNC(=O)c1cccs1)c1ccccc1	-2	/	/	97	/	i	1.2
Cc1csc(Nc2ccccc2C(F)(F)F)n1	-6	-0.8	33	108	303	i	0.98
Cc1ccc(C)c(S(=O)(=O)c2c(N)n(/N=C/c3ccco3)c3nc4ccccc4nc23)c1	1	0.8	/	100	/	i	1.2
Cc1ccc(/C=N/NC(=O)Cn2cnc3c2c(=O)n(C)c(=O)n3C)s1	-12	-0.8	53	96	122	i	0.9
COC(=O)c1ccc(NC(=S)NCCc2ccccc2C)cc1	3	-0.8	-57	100	47	i	1
CCOC(=O)c1c(NC(=O)CSc2nnc(-c3c[nH]c4ccccc34)n2CC)sc2c1CCCC2	1	-1.2	-2	109	104	i	0.82
NC(=S)Nc1ccc(F)c(F)c1F	/	/	/	98	/	i	0.91
COc1cc(/C=N/NC(=S)NC2CC3C=CC2C3)cc(OC)c1OC (configuration not stated)	/	/	/	100	/	i	0.92
N#C/C(=N\Nc1ccc([N+](=O)[O-])cc1)C(N)=S	/	/	/	94	/	i	0.74
O=C(O)CCc1nn2cnc3sc4c(c3c2nc1=O)CCCC4	-7	-0.9	7	97	110	i	1
O=C(Nc1ccccc1)C1=C[C@H](c2ccc3c(c2)OCO3)C[C@H](OCc2ccc(CO)cc2)O1	-1	/	/	99	/	/	/
CCN1CCc2nc(NC(=O)C(c3ccccc3)c3ccccc3)sc2C1	-2	1.5	7	101	57	i	0.9
O=C(c1ccc(Cl)cc1)N(Cc1cccs1)C1CCS(=O)(=O)C1 (configuration not stated)	-7	-4.9	-55	103	264	i	1
Cc1cc(NC(=O)C2CC(c3c(F)cccc3Cl)=NO2)n(-c2ccccc2)n1 (configuration not stated)	1	/	/	102	/	i	0.89
CCSC1=NCN(CCCC(=O)O)CN1	-13	-2.3	/	97	/	i	0.93
CC1=C(C(=O)N2CCOCC2)C(c2ccc(O)cc2)NC(=S)N1 (configuration not stated)	-6	0.6	14	101	108	i	1
CCSc1nnc(NC(=O)CSc2nccn2-c2cc(C)cc(C)c2)s1	-4	-1.7	/	103	/	i	0.87
COc1ccccc1NC(=O)c1c(C)nc2ccccc2c1C(=O)O	/	/	/	102	/	i	0.99
CC(=O)Nc1ccc(NC(=O)CSc2nnnn2-c2ccc3c(c2)OCCO3)cc1	-2	/	/	109	/	i	1.1
CC1CC(C)CN(C(=O)COC(=O)c2ccc[nH]c2=O)C1 (configuration not stated)	-4	-1.4	-3	105	89	i	0.89
CSC(=NC#N)N1CCN(C(=NC#N)SC)CC1	-1	/	-14	93	85	i	0.82
COc1cc(N/C(N)=N/c2nc(C)cc(C)n2)c(OC)cc1Cl	6	/	/	104	/	i	0.88
Cn1c(-c2sc3cc(C(F)(F)F)cnc3c2-c2ccccn2)n[nH]c1=S	-4	/	/	101	/	i	1.1
C=CCNC(=O)CSc1ncc2c(n1)-c1c(csc1SC)CC2	/	/	/	95	/	i	0.97
COc1cc(OC)c(/C=N/NC(N)=S)cc1Br	-10	-1.9	10	47	88	i	0.99
CCCCCC(=O)Nc1sc(C)c(C)c1C#N	-10	0.7	/	82	/	i	0.91
CCOc1ccc(N2C(=O)Nc3ccccc3C2(O)C(=O)NCc2ccco2)cc1 (configuration not stated)	-5	/	0	93	75	i	1.1
O=C1N(CN2CCC3(CC2)OCCO3)c2ccccc2C12OCCCO2	-6	-1.4	/	104	/	i	1.1
C=CCOc1c(Br)cc(CNc2ccc(NC(=O)C(C)C)cc2)cc1OCC	1	-1.7	/	101	/	i	0.99
CCOc1ccccc1Oc1coc2cc(OCC(=O)O)ccc2c1=O	1	/	21	105	134	i	0.76

At a glance, some entries already given.
Molecule	PKD1 kinase inh	GALR2 ag	INS promoter inh	RGS16-Gao	INS promoter inh cell count	HSV augment	HSV augment primary fold
C=CCOc1c(Br)cc(CNc2ccc(NC(=O)C(C)C)cc2)cc1OCC	1	-1.7	/	101	/	i	0.99
CCOc1ccccc1Oc1coc2cc(OCC(=O)O)ccc2c1=O	1	/	21	105	134	i	0.76

(more compounds)
Molecule	PKD1 kinase inh	GALR2 ag	INS promoter inh	RGS16-Gao	INS promoter inh cell count	HSV augment	HSV augment primary fold
Nc1nc(Br)c2c(F)cccc2c1-c1ccc(F)cc1	7	7.3	-6	107	96	i	1.4
Cc1noc(C)c1COc1cccc(C(=O)Nc2ccc(C#N)cc2)c1	-3	-1.8	0	83	103	i	0.92
Cc1cc(C)cc(N2C(=O)CCN(Cc3ccccc3)C2=O)c1	/	/	/	101	/	i	0.89
O=C(O)c1ccc(Cl)c(S(=O)(=O)N2CCCC2)c1	/	/	/	102	/	i	1.2
Cc1cccc(C#N)c1NC1=CC(=O)CC(C)(C)C1	-4	0.4	11	21	123	i	1.1
O=c1[nH]nc(SCc2nc3ccccc3s2)n1C1CC1	5	/	-14	107	94	i	0.95
COC(=O)CN1C(=S)N(c2ccc(F)cc2)C(=O)C1CC(=O)Nc1ccccc1 (configuration not stated)	-2	/	/	100	/	i	0.94
Cc1cc(NC(=O)CSc2ncnc3c2cnn3-c2ccccc2)no1	-5	/	/	106	/	i	0.89
COc1cccc(-c2cc(C(=O)N3C(C)CCCC3C)no2)c1 (configuration not stated)	3	-0.1	-19	105	93	i	0.82
O=[N+]([O-])c1ccc(O)c(/C=N/n2cnc3ccccc32)c1	-2	-1.5	/	101	/	i	0.99
CCOC(=O)C1(Cc2cccc(OC)c2)CCN(Cc2cccc(OC)c2O)CC1	3	/	/	102	/	i	0.96
CCC(=O)NC(=S)Nc1ccc(NC(=O)c2cc3ccccc3o2)c(OC)c1	6	/	/	107	/	i	0.97

An excerpt from above in order of the GALR2 ag value, falling:
| structure | PKD1 kinase inh | GALR2 ag | RGS16-Gao | HSV augment primary fold |
| --- | --- | --- | --- | --- |
| Nc1nc(Br)c2c(F)cccc2c1-c1ccc(F)cc1 | 7 | 7.3 | 107 | 1.4 |
| Cc1cccc(C#N)c1NC1=CC(=O)CC(C)(C)C1 | -4 | 0.4 | 21 | 1.1 |
| Cc1noc(C)c1COc1cccc(C(=O)Nc2ccc(C#N)cc2)c1 | -3 | -1.8 | 83 | 0.92 |

Next section
Molecule	PKD1 kinase inh	GALR2 ag	INS promoter inh	RGS16-Gao	INS promoter inh cell count	HSV augment	HSV augment primary fold
CCOC(=O)CCC(=O)c1c(C)oc2ccc(OC)cc12	-3	-0.7	2	100	115	i	0.92
CC(NC(=O)CCc1ccccc1)c1cc2c(cc1Cl)OCCO2 (configuration not stated)	-9	-0.9	-83	102	55	/	/
CCOc1ccc2c(c1)s/c(=N\S(=O)(=O)c1ccc(OC)cc1)n2C(F)F	-15	-0.9	-23	100	57	i	0.76
Cc1ccc(C2/C(=C(\O)c3c(C)nc4ccccn34)C(=O)C(=O)N2CCN(C)C)o1 (configuration not stated)	/	/	/	96	/	i	0.93
CC(C)C(C(=O)Nc1sc2c(c1C#N)CCCCC2)N1C(=O)c2ccccc2C1=O (configuration not stated)	8	-2.4	17	108	105	i	1
c1csc(Cc2nc(-c3ccc(-n4cccc4)cc3)no2)c1	-3	-1.6	/	/	/	i	0.92
c1ccc(Cc2nn3c(COc4ccccc4)nnc3s2)cc1	-3	-0.4	-18	72	160	i	0.89
CN(CCc1ccccn1)C(=S)Nc1ccc(Cl)c(Cl)c1	-3	/	/	115	/	i	0.8
